# StopGo FLuc: lowers the firefly signal of an FMDV 2A StopGo reporter | HEK cells with a luciferase reporter of 2A StopGo recoding | Potency, µM (top dose mostly 57.5 µM), inactives show top-dose signal change, negative = less light | 0.23% of 120,000 active | AID 1745856; active = well fitted falling curve with a large enough effect; inconclusive = small, poorly fitted or top-dose-only effect; inactive = no such curve, though single readings can be large or run the other way; further: nearly all actives have a fitted effect of over 60% in size; overnight with compound
# StopGo RLuc: FMDV 2A StopGo reporter, Renilla signal; HEK cells with a luciferase reporter of 2A StopGo recoding; Potency, µM (series often up to 57.5 µM), without a hit: top-dose signal change, negative = less light; 0.32% of 120,000 active; active means well fitted falling curve with a large enough effect; inconclusive means small, poorly fitted or top-dose-only effect; inactive means no such curve, though single readings can be large or run the other way; further: nearly all actives have a fitted effect of over 55% in size; overnight with compound
# * marks the source's active call; other numbers are inactive results; ? = inconclusive; & = joins results of further samples; [ ] = dose if it differs, or a comment. On the % scale 0 is the no-effect control and ±100 the full control effect; potency means the concentration at half of the fitted maximal effect. Only part of the results is shown. The share of hits here may be higher or lower than overall.
CC(C)NC(=O)c1ccc(Cn2c(SCc3ccc(F)cc3)nc3cccnc32)cc1
  StopGo FLuc = 59%[activator]
  StopGo RLuc = 2%
Cc1c(C(=O)N2CCOCC2)c(S(=O)(=O)Nc2cccc3c2CCCC3)c(C)n1C
  StopGo FLuc = 4%
  StopGo RLuc = 158%[activator]
Cc1cccc(NC(=O)CSc2nc(=O)n(CCN3CCOCC3)c3c2CCC3)c1C
  StopGo FLuc = -20%
  StopGo RLuc = -11%
CCc1ccc(C(=O)c2cnc3ccc(OC)cc3c2N2CCOCC2)cc1
  StopGo FLuc = -8%
  StopGo RLuc = 1%
CS(=O)c1ccc(C(=O)NCc2ccc(-c3nc4ccccc4s3)o2)cc1 (stereo unspecified)
  StopGo FLuc = 127%[activator]
  StopGo RLuc = 10%
O=C(OCCOc1cccc(Cl)c1)c1cc(=O)c2ccccc2o1
  StopGo FLuc = 32%[activator]
  StopGo RLuc = -5%
Cc1ccc(C)c(NC(=O)C(Sc2nnnn2C2CCCC2)c2ccccc2)c1 (stereo unspecified)
  StopGo FLuc = -9%
  StopGo RLuc = 45%[activator]
COC(=O)CNC(=O)c1cc(-c2cccs2)nc2ccccc12
  StopGo FLuc = 21%
  StopGo RLuc = 14%
O=C(NCCc1ccc(Cl)cc1)C1CCOCC1
  StopGo FLuc = 18%
  StopGo RLuc = -8%[1.06 µM]
Cc1nc(Nc2ccccc2F)sc1C(=O)Nc1ccccc1
  StopGo FLuc = 39%[activator]
  StopGo RLuc = 13%
Cc1ccc(C(NC(=O)c2cc(=O)c3cc(C)ccc3o2)C2CC2)cc1 (stereo unspecified)
  StopGo FLuc = ?
  StopGo RLuc = ?
CCOC(=O)c1ccccc1NC(=O)CN(c1ccccc1)S(=O)(=O)c1ccc(OCC)cc1
  StopGo FLuc = -18%
  StopGo RLuc = -13%
O=C(Cn1c(=O)n(Cc2ccc(C(=O)NCc3ccc4c(c3)OCO4)cc2)c(=O)c2ccccc21)Nc1ccc(F)cc1F
  StopGo FLuc = 7%
  StopGo RLuc = 28%
Cc1ccc2occ(CC(=O)Nc3sc4c(c3C(=O)NCc3ccco3)CCCC4)c2c1
  StopGo FLuc = 31%[activator]
  StopGo RLuc = 33%[activator]
CC(CNC(=O)CN1C(=O)c2cccnc2Oc2ccc(Cl)cc21)c1ccccc1 (stereo unspecified)
  StopGo FLuc = 6%
  StopGo RLuc = 1%

CC(C)(C)C1CCc2c(sc3nc(-c4cc5cc(Br)ccc5oc4=O)[nH]c(=O)c23)C1 (stereo unspecified)
  StopGo FLuc = -18%
  StopGo RLuc = -16%
CC(=O)c1cccc(OCc2coc(-c3cccc(F)c3)n2)c1
  StopGo FLuc = 0%
  StopGo RLuc = -19%
COc1ccc(-c2noc(N3CCN(c4cccc(C)c4C)CC3)n2)cc1OC
  StopGo FLuc = ?
  StopGo RLuc = ?
O=C(NCc1cccnc1)c1cccc2ccccc12
  StopGo FLuc = 11%
  StopGo RLuc = 10%
Cc1ccc(N2C(=O)c3cccnc3C2Nc2ccc3c(c2)OCO3)cc1 (stereo unspecified)
  StopGo FLuc = 95%[activator]
  StopGo RLuc = 58%[activator]
Cc1cccc(C(=O)NCC(O)(c2ccccc2)C(F)(F)F)c1 (stereo unspecified)
  StopGo FLuc = -6%
  StopGo RLuc = 12%
CCCn1c2ccccc2c2cnn(CC(=O)NCC3CCN(Cc4ccc(F)cc4)CC3)c(=O)c21
  StopGo FLuc = -14%
  StopGo RLuc = -12%
Cc1ccc(-c2cc(C(=O)NCCO)c3ccccc3n2)cc1
  StopGo FLuc = 35%[activator]
  StopGo RLuc = 6%
Clc1cccc(-c2nc(CN3CCCC3c3nnc4ccccn34)co2)c1 (stereo unspecified)
  StopGo FLuc = 9%
  StopGo RLuc = 2%
O=C(NCc1ccccc1)c1ccc2c(c1)CCN2S(=O)(=O)c1ccc(Cl)cc1
  StopGo FLuc = -6%
  StopGo RLuc = 36%[activator]
CCC1c2ccsc2CCN1C(=O)/C=C/c1ccc(C)cc1 (stereo unspecified)
  StopGo FLuc = 150%[activator]
  StopGo RLuc = 80%[activator]
CCOc1ccc(NCc2cccn2-c2nnc(N3CCC(C(=O)NCc4ccccc4Cl)CC3)s2)cc1
  StopGo FLuc = -15%
  StopGo RLuc = -7%
CCOC(=O)c1cc2c(=O)n3ccccc3nc2n(CC2CCCO2)c1=NC(=O)c1ccc(C(C)(C)C)cc1 (stereo unspecified)
  StopGo FLuc = -9%
  StopGo RLuc = -1%
Cc1ccc(-n2ncc(C(=O)NCCN3CCc4ccccc4C3)c2C2CCNCC2)cc1C
  StopGo FLuc = -12%
  StopGo RLuc = -20%
Cc1nc2cc(F)ccc2cc1C(=O)N1CCN(Cc2ccccc2F)CC1
  StopGo FLuc = ?
  StopGo RLuc = ?

# By substructure: the entries above with fluorine
CC(C)NC(=O)c1ccc(Cn2c(SCc3ccc(F)cc3)nc3cccnc32)cc1
  StopGo FLuc = 59%[activator]
  StopGo RLuc = 2%
Cc1nc(Nc2ccccc2F)sc1C(=O)Nc1ccccc1
  StopGo FLuc = 39%[activator]
  StopGo RLuc = 13%
O=C(Cn1c(=O)n(Cc2ccc(C(=O)NCc3ccc4c(c3)OCO4)cc2)c(=O)c2ccccc21)Nc1ccc(F)cc1F
  StopGo FLuc = 7%
  StopGo RLuc = 28%
CC(=O)c1cccc(OCc2coc(-c3cccc(F)c3)n2)c1
  StopGo FLuc = 0%
  StopGo RLuc = -19%
Cc1cccc(C(=O)NCC(O)(c2ccccc2)C(F)(F)F)c1 (stereo unspecified)
  StopGo FLuc = -6%
  StopGo RLuc = 12%
CCCn1c2ccccc2c2cnn(CC(=O)NCC3CCN(Cc4ccc(F)cc4)CC3)c(=O)c21
  StopGo FLuc = -14%
  StopGo RLuc = -12%
Cc1nc2cc(F)ccc2cc1C(=O)N1CCN(Cc2ccccc2F)CC1
  StopGo FLuc = ?
  StopGo RLuc = ?

# (next part)
COC(=O)CC1Oc2ccc(C)cc2-n2cc(-c3ccc(C)cc3)nc21 (stereo unspecified)
  StopGo FLuc = 11%&4%
  StopGo RLuc = 5%&2%
Cc1cccc(C(=O)Nc2ccc(NC(=S)NC(=O)c3ccc(Cl)cc3)cc2)c1
  StopGo FLuc = 20%
  StopGo RLuc = 35%[activator]
CCc1ccc(NC(=O)CSc2nc3ccccc3c(=O)n2CCNC(C)=O)cc1
  StopGo FLuc = -18%
  StopGo RLuc = -13%
CCN(CC)CCCC(C)Nc1ccnc2cc(Cl)ccc12 (stereo unspecified)
  StopGo FLuc = -24%[27 µM]
  StopGo RLuc = -12%[23.8 µM]
Cn1ncc2c(Nc3cccc4c3CCCC4)ncnc21
  StopGo FLuc = 0%
  StopGo RLuc = 24%
Cc1ccc(Sc2nc(C)cc(C)n2)cc1
  StopGo FLuc = 73%[activator]
  StopGo RLuc = 1%
N#C/C(=C\c1coc2ccccc2c1=O)c1nc2ccccc2[nH]1
  StopGo FLuc = 0%
  StopGo RLuc = 13%
CCCNC(=O)NC(=O)CN1CCC(C)CC1
  StopGo FLuc = 0%
  StopGo RLuc = -5%
CCC1CN(CC(=O)Nc2ccc(OC)c(Cl)c2)c2ccccc2S1 (stereo unspecified)
  StopGo FLuc = 110%[activator]
  StopGo RLuc = 125%[activator]
CC(C)(C)c1nnc2sc(-c3cc4ccccc4[nH]3)nn12
  StopGo FLuc = 0%
  StopGo RLuc = -6%
CC(C)(Oc1ccc(Cl)cc1)C(=O)Nc1cccc(-c2cn3cccnc3n2)c1
  StopGo FLuc = -22%
  StopGo RLuc = -5%
CCCCOCCN(C)CC(=O)NCCCOC
  StopGo FLuc = -4%
  StopGo RLuc = -17%
COc1ccc(C(=O)N2CCC(c3nc4ccccc4s3)CC2)cc1Cl
  StopGo FLuc = 28µM*
  StopGo RLuc = ?
CC1N=C(N)OC1c1ccccc1 (stereo unspecified)
  StopGo FLuc = 2%[22.9 µM]
  StopGo RLuc = -4%[114 µM]
COc1ccc(CNC(=O)[C@@H](NC(=O)N2CCn3c2nc2ccccc23)C(C)C)cc1
  StopGo FLuc = -21%
  StopGo RLuc = 3%

# (more compounds)
structure | StopGo FLuc | StopGo RLuc
COc1cccc(CNC(=O)c2cc3c(=O)n(C)c4ccccc4c3n2C)c1 | -31% | -5%
CSc1ccc(CCNC(=O)Cn2ncc3c(=O)oc4ccc(C)cc4c32)cc1 | ? | -10%
COC(=O)c1ccc(Cl)cc1NC(=O)N1CC(C)Oc2ccccc21 (stereo unspecified) | -5% | -11%
CCn1c(SCC(=O)Nc2cccc(Br)c2)nc2c(-c3ccccc3)c[nH]c2c1=O | -4% | 50%[activator]
CC(O)CNC(=O)Nc1sc2c(c1C#N)CC(C)(C)OC2 (stereo unspecified) | 0% | -1%
CC(C)Cc1nn2c(=O)cc(COC(=O)c3ccccc3NC(=O)C3CCCCC3)nc2s1 | -20% | -12%
Cc1ccc(Cn2cc(C(=O)NCCCc3[nH]nc(N)c3C#N)c(-c3ccc(C)cc3)n2)cc1 | 26% | 160%[activator]
CC(=O)c1ccc(NC(=O)CCc2ncc(-c3ccc(C)cc3)o2)cc1 | 34%[activator] | -2%
O=C(O)c1cccc(Nc2ncnc3ccc(Br)cc23)c1 | 61%[activator] | -10%
Cc1nnc(CN2CCN(C(=O)N3CCCCC3)CC2)o1 | 1% | -7%
COc1cccc(CNC(=O)c2cnc(N3CCCC3)nc2C)c1 | 1% | 2%
Cc1ccc2c(c1)c1c(c(=O)n(-c3cccc(Cl)c3)c(=O)n1CC(=O)c1ccc(Cl)cc1)n2C | -27% | -14%
COc1cccc(/C=C/C(=O)NCc2ccccc2)c1 | 149%[activator] | -9%[1.06 µM]
N#Cc1nc(-c2ccc([N+](=O)[O-])cc2)oc1NCCN1CCOCC1 | -9% | 8%
CC(C)(C)n1cnc2cc(NCc3cccs3)ccc21 | 165%[activator] | -2%
CCn1nc(C(=O)Nc2nc3ccccc3n2CC)c2ccccc2c1=O | 0% | 97%[activator]
Cc1sc2c(c1C)c(=O)n(-c1cccc(C(F)(F)F)c1)c(=O)n2Cc1ccccc1C#N | 1% | -5%
Cc1ccc(S(=O)(=O)N(CC(=O)NCCO)Cc2c(F)cccc2Cl)cc1 | -9% | -1%
O=C(c1ccc2c(Cl)c3c(nc2c1)CCCC3)N1CCN(c2cccc(C(F)(F)F)c2)CC1 | -2% | -6%
CCN(CC)S(=O)(=O)c1ccc2c(c1)nc(SCC(=O)Nc1ccc(F)c(F)c1)n2CC | 1% | 10%
COc1ccc(CCNC(=O)C2CCN(c3nc(Cl)nc4nc[nH]c34)CC2)cc1OC | 6% | -3%
CCCNC(=O)NC(=O)CN(C)CC(=O)Nc1ccccc1CC | 13% | -8%[1.06 µM]
COc1ccc(OCC(=O)N2CCC(c3nc4ccccc4o3)CC2)cc1 | 8% | -1%
N#Cc1sc(-c2cccc(Cl)c2)cc1N | 54%[activator] | 12%
O=C(CSc1nnc(-c2ccncc2)n1-c1ccc(Cl)cc1)Nc1ccc(F)cc1 | 4% | 21%
Cc1cccc(Cn2c(NCCN(C)C)nc3c2c(=O)[nH]c(=O)n3C)c1 | -9% | -1%
Cc1ccc(OCCSc2nc3ccccc3n2CC(=O)N2CCCCC2)c(C)c1 | -6% | 0%
O=C(CSc1nc2c(c(=O)[nH]1)CN(Cc1ccc3c(c1)OCO3)CC2)Nc1ccc(F)cc1 | 9% | 2%
CCC(CC)NC(=O)c1cc2ccccc2cc1OC | 132%[activator] | 67%[activator]
COC(=O)C1CN(CCc2ccccc2)CCS(=O)(=O)N1Cc1ccccc1 (stereo unspecified) | 52%[activator] | 51%[activator]
O=C1Nc2ccc(Cl)cc2[C@@](C#CC2CC2)(C(F)(F)F)O1 | -11%[11.5 µM] | -1%
CC(=O)Nc1ccccc1C(=O)N1CCN(C)CC1 | 3% | 11%
Cc1ccccc1Nc1nc(NC2CCCCCC2)nc2c1cnn2-c1ccccc1 | -8% | 7%
O=C(CSc1ncnc2nc[nH]c12)Nc1ccc(Br)cc1Cl | 46%[activator] | 13%
Cc1scc(C(=O)NCc2ccccn2)c1C | 0% | 10%
O=C(CSc1nc(-c2ccco2)nc2cc(=O)[nH]n12)Nc1ccc(F)cc1 | -15% | -21%

# Entries of single compounds as entered above. Order of values: StopGo FLuc, StopGo RLuc
# CC(=O)c1cccc(OCc2coc(-c3cccc(F)c3)n2)c1 is entered as 0%, -19%
# CC(C)(C)c1nnc2sc(-c3cc4ccccc4[nH]3)nn12 is entered as 0%, -6%
# Cc1cccc(NC(=O)CSc2nc(=O)n(CCN3CCOCC3)c3c2CCC3)c1C is entered as -20%, -11%
# CCOc1ccc(NCc2cccn2-c2nnc(N3CCC(C(=O)NCc4ccccc4Cl)CC3)s2)cc1 is entered as -15%, -7%
# CCC1c2ccsc2CCN1C(=O)/C=C/c1ccc(C)cc1 (stereo unspecified) is entered as 150%[activator], 80%[activator]

# Later entries
structure | StopGo FLuc | StopGo RLuc
CSc1ccc(C(C)NC(=O)c2ccc(F)cc2F)cc1 (stereo unspecified) | -4% | 0%
O=C(Nc1cccc(Cl)c1)C(Cc1ccccc1)n1cccc1 (stereo unspecified) | -18% | 19%
Cc1cccc(C)c1OCC(=O)NCc1ccc(CS(N)(=O)=O)cc1 | 7% | 12%
Cc1c(C(=O)NCc2ccccc2Cl)sc2nc3n(c(=O)c12)CCCCC3 | 49%[activator] | 23%
CCc1cccc(C)c1NC(=O)c1nn(Cc2ccccc2)c(=O)c2ccccc12 | 0% | 5%
Cc1csc(NC(=O)c2ccc(Oc3ccc(Br)cc3)nc2)n1 | ? | 13µM*
COc1ccc(-n2c(SCC(=O)N3CCCc4ccccc43)nc3c(c2=O)SCC3)cc1 | -23% | -5%
CCN1C(=O)C(NC(=O)C(=O)NCCc2c[nH]c3ccc(Cl)cc23)c2ccccc21 (stereo unspecified) | -7% | -10%
O=C(O)C(c1c(-c2ccccc2)[nH]c2ccccc12)N1CCN(Cc2cccnc2)CC1 (stereo unspecified) | 49%[activator] | 15%

# Screens (PubChem)
